gsp agonist: gsp mutant agonism; 340,000 tested, 0.13% active; gsp mutant cells, cAMP HTRF, 30 min; control for the full effect not named in the record; Potency, µM (highest dose often 76.9 µM), for the others: top-dose activation (cAMP increase), usual class: activators; active = well fitted activation curve with a large enough effect; inconclusive = small, poorly fitted or top-dose-only effect, or another doubt; inactive = no such curve, though single readings can be large or run the other way; cell line not stated here;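 note: phosphodiesterase inhibitor Ro 20-1724 added with compounds to block cAMP breakdown; potency is the fitted concentration of half-maximal effect; nearly all actives have a fitted effect of over 60% in size; about a fifth of the inactives were tested at one dose only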
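Cells stably selected in G418 were plated at 2000/well, grown 16-24 hr, then given compounds in DMSO with the PDE inhibitor […] (300 uM solution added) for 30 min at 37C; cAMP was read by HTRF.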
gsp antagonist: antagonizes gsp, the McCune-Albright syndrome mutation; gsp-mutant cells, cAMP HTRF, 30 min; control for the full effect not named in the record; Potency, µM (doses to about 76.9 µM), without a hit: at the highest dose activity change, negative = inhibition, most hits filed as inhibitors; 340,000 tested, 0.4% active; active = falling curve of any shape with a large fitted effect; inconclusive = falling curve, mostly with a smaller effect; inactive = flat or rising curve; cell line not stated here;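 note: intracellular cAMP measured with PDE inhibitor Ro 20-1724 present during compound exposure; potency is the fitted concentration of half-maximal effect; % is set by controls: 0 for no effect and ±100 for the full control effect; nearly all actives have a fitted effect of over 65% in size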
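HTRF cAMP read-out (cAMP-d2 plus anti-cAMP antibody-K in lysis buffer, 30 min RT). Before lysis, cells are exposed to compounds with […] for 30 min at 37C in DPBS containing Ca/Mg, BSA and Tween 20.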
PINK1 modulator: PINK1 expression modulation. Potency, µM (series often up to 76.6 µM), inactives show at the highest dose activation (PINK1 increase), usual class: activators. PINK1 immunofluorescence, high-content cytometry, 24 h. 410,000 tested, 0.2% active. AID 624263; active = well fitted activation curve with a large enough effect; inconclusive = small, poorly fitted or top-dose-only effect; inactive = flat fitted curve, though single readings scatter; cell line not stated here;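 note: potency is the fitted concentration of half-maximal effect; % of control where 0% means no effect; nearly all actives have a fitted effect of over 65% in size; a mitochondrial uncoupler was the plate control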
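Decision-based qHTS: stable cells, 24 h exposure to five compound concentrations, CCCP as control. Fixed cells stained for PINK1 plus nuclear, mitochondrial and cell markers, cytometer read.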
Sfp inh: blocks B. subtilis Sfp PPTase activity. Potency, µM, for inactives: max response, negative = inhibition, usual class: inhibitors. 310,000 tested, 3.5% active. Q9F4F7. Biochemical Sfp PPTase activity, qHTS; active = well fitted inhibition curve with a large enough effect; inconclusive = small, poorly fitted or top-dose-only effect, or another doubt; inactive = no such curve, though single readings can be large or run the other way;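 note: the enzyme is Sfp with the accession as filed and its product quenches rhodamine fluorescence; potency is the fitted concentration of half-maximal effect; 0% = enzyme reaction without inhibitor and -100% = no enzyme wells; top concentration of the series not given in the record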
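With Hepes-Na pH 7.6 buffer containing 10 mM MgCl2, Sfp (15 nM) modified BHQ-2-YbbR (12.5 uM) using rhodamine-CoA (5 uM). Two reads 30 minutes apart at 525/598 nm yielded each well's rate.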
ClpP mod: qHTS Assay for Activators of ClpP | Potency, µM (series often up to 57.5 µM), for the others: top-dose activity change, negative = active | purified B. subtilis ClpP, FRET peptide cleavage, 20 min | AID 651965, 2013 | 340,000 tested, 1.9% active; active = well fitted falling curve with a large enough effect; inconclusive = small, poorly fitted or top-dose-only effect; inactive = no such curve, though single readings can be large or run the other way; note: potency is the fitted concentration of half-maximal effect; the source files actives as falling curves though it sought activators and does not explain the sign; nearly all actives have a fitted effect of over 65% in size; many hits overshoot -100%
Target sequence (P80244 whole entry, looked up): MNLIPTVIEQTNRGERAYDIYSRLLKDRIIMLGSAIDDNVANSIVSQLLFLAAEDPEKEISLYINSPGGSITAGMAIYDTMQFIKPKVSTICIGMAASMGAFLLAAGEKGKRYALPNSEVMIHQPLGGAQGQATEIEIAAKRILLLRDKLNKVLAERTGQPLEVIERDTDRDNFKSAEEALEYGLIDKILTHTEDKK
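FRET quenching reversal measured ClpP activation: 10 microg/mL B. subtilis ClpP at pH 8 with the FRET-FV decapeptide, read at 430 nm after 320 nm excitation. The 20-min minus 0-min signal was scaled between DMSO/no-enzyme wells and ADEP (5.8 microM final).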
D2 ag: human D2 receptor agonism in beta-arrestin assay; activation, % (no concentration beside the values); P14416; AID 624465; 360,000 tested, 0.084% active; DiscoveRx PathHunter D2 beta-arrestin, luminescence, 90 min; 100% = 57 uM dopamine signal; in the data active = activation above about 40%; inconclusive = about 15% to 40%; inactive = below about 15%; note: compound concentration not given in the record; the text of the record calls up to 30% inactive
Target sequence (P14416 whole entry, looked up): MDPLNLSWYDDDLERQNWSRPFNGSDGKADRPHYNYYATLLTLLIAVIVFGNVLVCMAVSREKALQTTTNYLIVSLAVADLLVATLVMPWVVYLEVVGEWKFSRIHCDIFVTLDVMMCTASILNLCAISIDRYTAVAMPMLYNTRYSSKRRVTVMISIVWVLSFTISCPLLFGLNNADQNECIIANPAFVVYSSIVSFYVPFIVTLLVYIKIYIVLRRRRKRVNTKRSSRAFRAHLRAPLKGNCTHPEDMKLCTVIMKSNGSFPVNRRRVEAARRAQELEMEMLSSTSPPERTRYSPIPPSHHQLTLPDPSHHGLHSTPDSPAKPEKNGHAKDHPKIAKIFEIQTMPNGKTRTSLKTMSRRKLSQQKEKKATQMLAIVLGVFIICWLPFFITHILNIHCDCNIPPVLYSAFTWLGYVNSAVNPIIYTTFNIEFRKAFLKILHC
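Agonist mode: compounds alone added to overnight-plated D2 PathHunter cells for 90 min at 37 C, with 57 uM final dopamine (EC100) defining full response. Beta-arrestin recruitment detected by chemiluminescent reagent, read after 1 h at ambient temperature.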
Menin MLL FP FL: inhibitors of human menin-MLL interaction, wild-type MLL peptide; FP activity change, % at 61.4 µM; Fluorescence polarization, fluorescein-MLL peptide displacement from menin; 290,000 tested, under 10 active; inconclusive = falling polarisation curve, or a change in total fluorescence; inactive = total fluorescence flat and polarisation flat or rising; no compound was filed as active; the % refers to the polarisation; negative = inhibition;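 note: % of control where 0% means no effect; inhibitors lower the polarisation; unlabelled MLL peptide was the positive control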
Active calls of the source: *; u = inconclusive; x = not tested or not shown; [ ] = another dose, or the depositor's remark.

SMILES	gsp agonist	gsp antagonist	PINK1 modulator	Sfp inh	ClpP mod	D2 ag	Menin MLL FP FL
Cc1ccc(C(=O)NC(C)c2ccc(F)cc2)cc1 (configuration not stated)	22%	-1%	0.7%	-5%	-0.9%	2.3	9.8
Fc1cnc(N/N=C/c2ccc(-c3ccc(Br)cc3)o2)nc1N1CCOCC1	19%	4%	0.5%	5%	x	3.2	u
O=C(CNS(=O)(=O)Cc1ccccc1)NCc1ccccc1	6%[15.4 µM]	4%	1.0%	-9%	x	-3.6	2.7
CCN(CCCn1c(=S)[nH]c2ncccc2c1=O)c1ccccc1	0%	6%	2.1%	12%	-1.7%	-1.7	3.0
O=C(Nc1cccc(C(F)(F)F)c1)c1cccnc1N1CCOCC1	0%	-18%	0.8%	1%	-0.3%	-2.5	1.6
COC(C[C@@H]1O[C@H]1C(=O)COCc1ccccc1)OC	x	8%	0.1%	x	0.7%	-1.2	x
O=C(/C=C/Nc1ccc(Nc2ccccc2)cc1)c1cccs1	7%	-14%	3.8%	6%	x	7.4	1.7
COC(=O)C1=C(C)N(CC2CC2)C(=NCc2cccc(C(F)(F)F)c2)N[C@H]1c1ccccc1	-11%	15%	-0.9%	7%	1.8%	1.4	-2.4
CCOc1ccc(S(=O)(=O)N2CCCC(C(=O)NCC3CCCO3)C2)cc1 (configuration not stated)	27%	22%	0.8%	17%	0.0%	-0.4	x
Cc1ccc(C(=O)NCc2ccco2)cc1S(=O)(=O)N1CCCC1	-40%[inhibitor]	-1%	-1.9%	-22%	-1.0%	-1.1	5.1
COC(=O)c1ccccc1Nc1ccnc(Cl)n1	-4%[15.4 µM]	4%	1.3%	x	x	-3.8	x
N=C1CCCN1CC(=O)c1cccs1	15%[15.4 µM]	x	-0.2%	15%	x	-0.5	0.7
Cc1c(NC(=O)COC(=O)c2ccccc2O)c(=O)n(-c2ccccc2)n1C	-16%	x	-0.6%	x	11%	-3.6	x
CC(C)c1cc(-c2cc(-c3ccccc3)on2)nc(NC2CCCC2)n1	x	-1%	12%	-9%	u	-1.6	0.7
CCOC(=O)C1=NNC(C(=O)c2ccc(Cl)cc2)C1c1ccccc1 (configuration not stated)	11%[15.4 µM]	-12%	0.1%	9%	1.7%	-12	-2.1
O=C(O)C1Cc2ccccc2CN1C(=O)CSc1nnc2ccccn12 (configuration not stated)	33%[15.4 µM]	17%	-0.1%	-19%	x	-7.2	4.0
O=C(Nc1ccccc1C(F)(F)F)c1ccccc1Br	4%[15.4 µM]	4%	0.4%	-1%	-1.6%	-3.7	-5.2
O=C(Cn1c(O)c(/C=C2\C=Nc3ccccc32)sc1=O)N1CCOCC1	-240%[inhibitor]	-11%	u	9%	0.1%	-4.8	-0.6
COc1ccc(N2CCN(C(=O)/C=C/c3ccco3)CC2)cc1	-3%	-1%	-1.4%	-20%	x	-3.0	2.2
Cc1cccc(C)c1OCC(=O)Nc1ccccc1C(=O)N1CCOCC1	19%[15.4 µM]	7%	-0.9%	6%	-2.3%	-3.0	x
COc1ccc(-n2c(SCC(=O)N3CCc4ccccc43)nnc2-c2c[nH]c3ccccc23)cc1	-55%[inhibitor]	-5%	-0.2%	2%	-4.3%	-3.5	0.2
O=C(NC1CCCCC1)C1CCCN1C(=O)Nc1ccccc1 (configuration not stated)	19%	6%	0.0%	11%	x	3.5	6.5
CC(C)n1cnnc1SCC(=O)Nc1ccc(Br)cc1F	-1%	-5%	2.5%	24%	-1.0%	1.7	2.2
COc1ccc(/C=N/NC(=O)C2CCN(c3ncc(C(F)(F)F)cc3Cl)CC2)cc1	1%	-2%	-1.0%	9%	0.8%	-3.5	4.4
CCn1nnnc1SCC(=O)Nc1cc(OC)cc(OC)c1	-27%	1%	0.8%	1%	-1.5%	-1.0	-0.9

Next section:
SMILES	gsp agonist	gsp antagonist	PINK1 modulator	Sfp inh	ClpP mod	D2 ag	Menin MLL FP FL
CCOC(=O)C1=C(C)N(CCCC(=O)O)C(=O)NC1c1cccs1 (configuration not stated)	x	7%	1.5%	x	1.1%	-0.1	x
COc1cc(OC)cc(C(=O)N2CCN(C3CCN(Cc4ccccc4)CC3)CC2)c1	-34%[inhibitor]	3%	-2.8%[38.3 µM]	u	1.0%	-1.2	-0.1
Cc1cc(CSC(=N)N)c(CSC(=N)N)cc1C	-15%[15.4 µM]	-1%	1.1%	7%	-0.9%	-5.8	-5.8
CCCCN(C(=S)Nc1cccc(C)c1C)c1c(N)n(CCC)c(=O)[nH]c1=O	28%	2%	-0.5%	14%	-1.2%	-2.1	-1.3
COc1cccc2c3c(c(C)nc12)CC(C)O3 (configuration not stated)	u	18%	0.8%	19%	7.9µM*	-0.3	-2.4
CC1Oc2ccccc2C=C1/C=C1/SC(N2CCOCC2)=NC1=O (configuration not stated)	4%	-11%	0.2%	u	-6.3%	-0.7	u
O=C(c1cccc(Cl)c1)N1CCN(C2CCCCCC2)CC1	8%	7%	-3.3%	-9%	-0.6%	-1.2	-0.5
COc1ccc2cc(C3NC(=O)c4ccccc4N3)c(Cl)nc2c1 (configuration not stated)	13%	-4%	2.8%	-15%	0.0%	-3.8	-1.9
COc1ccc(-c2noc(N(C)CC(=O)Nc3cccc(C(F)(F)F)c3)n2)cc1	-31%[inhibitor]	-8%	24%	13%	1.0%	0.2	5.6
Cc1ccc(NC(=O)Cc2c(F)cccc2Cl)cc1S(=O)(=O)N1CCOCC1	u	-10%	1.9%	x	x	-3.3	x
Cc1sc(-c2ccccn2)nc1OC(=O)c1ccc(Cl)c(Cl)c1	-18%	8%	10%[38.3 µM]	-7%	-1.5%	-1.5	-0.8
O=C(Nc1cccc(Cl)c1)NC1CCN(C2CCCCC2)C1 (configuration not stated)	-48%	19%	3.4%	u	x	4.8	-1.8
OC(CNCc1ccc(Cl)cc1)(c1ccccc1)c1ccc(F)cc1 (configuration not stated)	-10%[15.4 µM]	1%	14%	-11%	x	-4.5	4.0
COc1ccc(S(=O)(=O)NCC2CCCN(C(=O)CC3CCCC3)C2)cc1 (configuration not stated)	4%	9%	-2.3%	6%	-2.1%	1.8	5.2
CCc1ccc2c(c1)c(N=NC1=NC(=O)CS1)c(O)n2CC	-4%	-8%	1.3%	-24%	0.2%	-5.8	3.6
Cn1c(Cl)nc2ccccc21	-8%	2%	-2.2%	28%	-2.5%	1.8	3.0
CC1CCCCN1CC(=O)Nc1ccc(N2CCCCCC2)cc1 (configuration not stated)	-1%[15.4 µM]	x	1.6%	45µM*	x	-2.8	1.3
O=C1COCCOCCOCCOCC(=O)NCCN1	14%	3%	-1.2%	15%	x	3.5	6.5
COc1ccc(/C=C2/SC(=S)N(CCCC(=O)Nc3ccccc3C(=O)O)C2=O)cc1	9%[15.4 µM]	u	-0.9%	27%	x	-1.2	u
CCn1c(=O)c(C(=O)NNC(=O)c2ccccc2Br)c(O)c2ccccc21	7%[15.4 µM]	u	2.3%	15%	x	0.5	-1.8
Cc1[nH]c2ccccc2c1C(C[N+](=O)[O-])c1ccco1 (configuration not stated)	-4%	-4%	0.4%	-7%	x	1.9	-2.8
Cc1ccc(Sc2ccc(S(=O)(=O)Nc3ccc(C(=O)O)cc3)cc2)cc1C	-11%	-20%	1.1%	x	1.7%	u	x
C[C@@H]1CCCCO[C@@H](CN(C)Cc2ccc3c(c2)OCO3)[C@@H](C)CN([C@H](C)CO)C(=O)c2cc(NS(=O)(=O)c3ccccc3)ccc2O1	18%	x	1.0%	x	-3.3%	3.2	x
COc1cccc(N2CCN(C(=O)c3c(C)nn(-c4ccccc4)c3C)CC2)c1	5%	-6%	0.4%	-12%	-1.3%	2.0	4.3
COC(=O)[C@@]1(C)[C@H]2C(=O)N(C)C(=O)[C@H]2[C@H]2CN(C)C(=NC3CCCCC3)N21	x	10%	-1.3%	x	0.3%	-0.7	x

The results go on:
SMILES	gsp agonist	gsp antagonist	PINK1 modulator	Sfp inh	ClpP mod	D2 ag	Menin MLL FP FL
CSc1ccc(/C=N/NC(=O)c2ccc(O)cc2)cc1	-1%[15.4 µM]	-22%	1.8%	8%	-18%	-1.9	1.2
COCCn1c(SCc2nc3sc(C(=O)OC)c(C)c3c(=O)[nH]2)nc2ccccc21	14%	-12%	4.3%	2%	-7.8%	-1.8	5.7
CCOc1ccc(OCC(=O)OC(C)C(=O)Nc2ccc(Cl)cn2)cc1 (configuration not stated)	-16%	6%	2.1%	x	-2.5%	-1.3	x
Cc1ccc(N2CN=c3s/c(=C\c4cccnc4)c(=O)n3C2)cc1	-23%	-15%	-2.0%	-27%	-2.6%	-0.6	-1.0
C/C=C/n1ccnc1CC(O)(c1ccccc1)c1ccc(C)cc1 (configuration not stated)	-5%[15.4 µM]	-7%	-0.1%	x	x	-1.7	x
Cc1ccc2c(c1)N(CCCC(=O)NCCCN1CCCC1=O)C(=O)CO2	11%	15%	-1.1%	10%	1.8%	-30	-0.1
CC(C)c1nc2sc3c(=O)[nH]cnc3c2c2c1CCCC2	2%[15.4 µM]	9%	1.6%	15%	x	-0.7	4.4
Cc1ccc2c(c1)NC(=O)C(CC(=O)NC1CCCCC1C)O2 (configuration not stated)	-19%	11%	3.7%	-4%	2.3%	-3.0	1.2
Cc1ccsc1C1C(C#N)=C(N)N(N(C)C)C2=C1C(=O)CCC2 (configuration not stated)	-5%[15.4 µM]	-36%	2.2%	u	-14%	0.5	2.8
CCc1ccc(C(=O)COC(=O)c2ccc(-c3nnc(-c4ccccc4)o3)cc2)cc1	-4%	5%	-1.1%	10%	-3.9%	1.1	2.8

3 structures from above, arranged by formula weight, rising:
SMILES	gsp agonist	gsp antagonist	PINK1 modulator	Sfp inh	ClpP mod	D2 ag	Menin MLL FP FL
Cc1ccc2c(c1)NC(=O)C(CC(=O)NC1CCCCC1C)O2 (configuration not stated)	-19%	11%	3.7%	-4%	2.3%	-3.0	1.2
C/C=C/n1ccnc1CC(O)(c1ccccc1)c1ccc(C)cc1 (configuration not stated)	-5%[15.4 µM]	-7%	-0.1%	x	x	-1.7	x
Cc1ccsc1C1C(C#N)=C(N)N(N(C)C)C2=C1C(=O)CCC2 (configuration not stated)	-5%[15.4 µM]	-36%	2.2%	u	-14%	0.5	2.8

Compound activity (PubChem)

Outcome played no part in choosing rows; 5.1% or so of the library scored in one or more.
